Yeast UUG start – yeast start codon fidelity modulation. S. cerevisiae UUG-firefly luciferase reporter, luminescence/redox ratio. activity score, % at 18.7 µM. 350,000 tested, 0.13% active;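 active = replicate mean at a twofold rise or more, about +100% in these data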;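 also: firefly luciferase made from a UUG start codon reports start codon fidelity; reporter light over untreated wells divided by growth signal over untreated wells; some hits fall short of that in this replicate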
eIF4H FP inh – inhibitors of RNA binding by human eIF4H | Q15056 | eIF4H fluorescence polarization binding assay | inhibition, % at 35 µM | 290,000 tested, 0.94% active | AID 2012;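 active = 50% or more with normal probe brightness, or confirmed in later tests; inconclusive = above 50% with abnormal brightness, or retests that disagree; inactive = below 50% or failed in later tests; about a fifth of its hits are not listed in these tables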;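 also: calls also rest on retests at 20 µM and on dose response follow-up; 0% = protein and probe with vehicle and 100% = probe without protein; strong numbers were not always called active; many hits fall short of the cut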
HIV Env fusion – blocks HIV Env-driven cell-cell fusion; HeLa-JRFL Env/CEM21 cell fusion, luciferase; inhibition, % at 12.3 µM; 360,000 tested, 1.1% active; AID 651610;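 active = mean replicate inhibition score of at least 50 and every replicate individually at or above 50; inconclusive = only one of the two criteria met; inactive = mean below 50 and not all replicates reaching 50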;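 also: 0% = plate neutral controls and 100% = maraviroc near 300 nM; one replicate is shown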
CSC inhib – cancer stem cell inhibition; cancer stem cell-like cells viability, luminescence; inhibition, % at 7.5 µM; 300,000 tested, 1.1% active; AID 2717;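 active = mean at 75% or more and at least half the replicates too; inconclusive = mean and replicates disagree; tested in HMLE shEcad cells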;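 also: 0% = median of negative and 100% = median of positive control wells; the first replicate is given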
MT1-MMP act inh – MT1-MMP (human) activation inhibition. P50281. HT1080 RFP-PRO-GFP cells, GFP/RFP ratio fluorescence, overnight; percent of plate control window, DMSO zero. GFP/RFP ratio change, % at 20 µM. 360,000 tested, 0.061% active;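 active = GFP/RFP ratio change of at least 30% with cell ATP level not reduced by more than half and red fluorescence within 50% of control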; also: strong numbers were not always called active
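Test system: HT1080 cells expressing an RFP-PRO-GFP fluorescent reporter construct / Compound dosing: single-point 20 µM compound, 1% DMSO / Schedule: cells overnight before dosing, compound overnight, 37 °C, 5% CO2 / Evaluation: GFP/RFP fluorescence ratio / Control set: DMSO and RFP-L50D-GFP cell wells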
Rce1 inh – yeast Ras-converting enzyme inhibition | 290,000 tested, 0.27% active | calls only | yeast membranes, quenched prenylated peptide cleavage fluorescence;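 active = fall in fluorescence gain of 50% or more versus controls, with final raw signal at or below 3038400; inconclusive = same 50% fall but final raw signal above 3038400; inactive = fall in fluorescence gain under 50%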;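 also: plate controls were neutral control wells for no effect and wells lacking membranes for full effect; tested at 10 µM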
PABP FP inh – PABP-poly(A) binding inhibition; PABP-poly(A) RNA binding, fluorescence polarization; inhibition, % at 35 µM; 290,000 tested, 1% active; AID 2014;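 active = 50% or more with normal probe brightness, or confirmed in later tests; inconclusive = above 50% with abnormal brightness, or retests that disagree; inactive = below 50% or failed in later tests; about a fifth of its hits are not listed in these tables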;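 also: calls also rest on retests at 20 µM and on dose response follow-up; controls were probe without protein and protein plus probe with vehicle; some compounds called inactive have numbers as strong as hits; many hits fall short of the cut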
Target sequence (P11940 whole entry, looked up): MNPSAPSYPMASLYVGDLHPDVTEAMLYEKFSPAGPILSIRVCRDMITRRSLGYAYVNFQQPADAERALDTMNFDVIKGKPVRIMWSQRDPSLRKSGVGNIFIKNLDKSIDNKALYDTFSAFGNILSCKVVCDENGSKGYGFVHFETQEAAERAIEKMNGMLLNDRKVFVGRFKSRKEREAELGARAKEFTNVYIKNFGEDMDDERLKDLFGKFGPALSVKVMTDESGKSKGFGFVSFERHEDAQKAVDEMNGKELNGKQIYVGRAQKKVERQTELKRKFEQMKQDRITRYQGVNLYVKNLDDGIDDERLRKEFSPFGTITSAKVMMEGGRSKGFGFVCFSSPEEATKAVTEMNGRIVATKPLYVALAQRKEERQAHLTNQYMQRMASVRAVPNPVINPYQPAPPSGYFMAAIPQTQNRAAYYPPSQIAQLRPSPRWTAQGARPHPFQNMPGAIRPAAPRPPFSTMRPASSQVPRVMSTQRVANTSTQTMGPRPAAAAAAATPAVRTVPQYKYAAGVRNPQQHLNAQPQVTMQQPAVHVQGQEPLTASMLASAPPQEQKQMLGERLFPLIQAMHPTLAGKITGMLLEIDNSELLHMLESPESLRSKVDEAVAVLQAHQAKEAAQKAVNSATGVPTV
eIF4H FP inh retest – recorded beside eIF4H FP inh, whose call it bears; inhibition, %; compound at 20 µM; confirmation average;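 mean of two retest wells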
PABP FP inh retest – second read-out of PABP FP inh, no call of its own (marks repeat the call); inhibition, %; compound at 20 µM; confirmation repeats;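 mean of two retest wells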
MT1-MMP act inh RFP – also measured in MT1-MMP act inh; calls as there; RFP signal change, %; measured here: RFP expression control read;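 0 = vehicle wells; hits needed this value within 50% of zero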
Starred values were filed as active, the others as inactive; i = inactive; ? = inconclusive; · = no result given; & = joins results of further samples. Not all compounds are listed. The share of hits here may be higher or lower than overall.

SMILES	Yeast UUG start	eIF4H FP inh	HIV Env fusion	CSC inhib	MT1-MMP act inh	MT1-MMP act inh RFP	Rce1 inh	PABP FP inh	others
CC1CC1C(=O)Nc1ccc(-c2ccccc2)cc1 (stereo unspecified)	·	-2	-25	13	4	-4	i	6
COc1cccc(C(=O)Nc2c(F)c(F)c(F)c(F)c2F)c1	-15	-1	-1	0	1	10	i	-8
Cc1c(C=O)c2ccccc2n1CC(=O)NCc1ccc2c(c1)OCO2	·	1	8	-7	-3	-6	i	40
N#Cc1c(-c2ccccc2)nc(-c2ccncc2)[nH]c1=O	-30	1	-2	-13	2	3	i	-1
CNC(=O)c1ccsc1NC(=O)CCS(=O)(=O)c1ccc(Cl)cc1	-14	·	3	-7	0	1	i	·
CC(C)(C)OC(=O)NCCc1nnc(S(=O)(=O)Cc2ccc(Cl)cc2Cl)o1	0	-4	·	?	0	1	i	-4
COc1cc2c(c(OC)c1)C(c1ccncc1)CC(=O)N2 (stereo unspecified)	-17	-5	-16	-3	1	2	·	9
Cc1cc(C)nc(Nc2ccc(F)cc2)n1	-19	-8	-10	6	2	1	i	8
O=C(CC[C@H]1O[C@@H](n2cnc3c(NC(=O)c4ccccc4)ncnc32)[C@H](O)[C@@H]1O)NCc1cccc2ccccc12	-15	·	28	·	0	3	·	·
N#C/C(=C/c1ccc(-c2ccccc2)o1)c1nc(-c2cccs2)cs1	·	53	3	11	-100	6	·	13	eIF4H FP inh retest=-8;PABP FP inh retest=2
CC(=O)c1c(N2CCCC2)nc(=S)n(-c2ccccc2)c1C	0	-6	-10	5	2	-1	i	-7
COCCn1c(COc2ccccc2)nnc1SCC(N)=O	·	-10	-40	·	-1	-2	·	-9
CCOC(=O)c1ccc[n+](CC(=O)Nc2cc(C(F)(F)F)ccc2Cl)c1	·	4	2	1	-17	6	i	8
CC(c1nnc(SCn2nnc3ccccc3c2=O)n1-c1ccc(Cl)cc1)N(C)C (stereo unspecified)	-13	-2	-26	-11	0	3	i	5
COc1ccc([C@@H]2CC=C(C(=O)O)[C@H](c3cccc(Cl)c3)N2S(=O)(=O)c2ccc(C)cc2)cc1OC	2	·	25	3	-1	3	·	·

Fetched by structure from above (four):
SMILES	Yeast UUG start	eIF4H FP inh	HIV Env fusion	CSC inhib	MT1-MMP act inh	MT1-MMP act inh RFP	Rce1 inh	PABP FP inh	others
CC(=O)c1c(N2CCCC2)nc(=S)n(-c2ccccc2)c1C	0	-6	-10	5	2	-1	i	-7
N#C/C(=C/c1ccc(-c2ccccc2)o1)c1nc(-c2cccs2)cs1	·	53	3	11	-100	6	·	13	eIF4H FP inh retest=-8;PABP FP inh retest=2
N#Cc1c(-c2ccccc2)nc(-c2ccncc2)[nH]c1=O	-30	1	-2	-13	2	3	i	-1
CC(c1nnc(SCn2nnc3ccccc3c2=O)n1-c1ccc(Cl)cc1)N(C)C (stereo unspecified)	-13	-2	-26	-11	0	3	i	5

The main list resumes with the five entries that preceded the break.
SMILES	Yeast UUG start	eIF4H FP inh	HIV Env fusion	CSC inhib	MT1-MMP act inh	MT1-MMP act inh RFP	Rce1 inh	PABP FP inh	others
CC(=O)c1c(N2CCCC2)nc(=S)n(-c2ccccc2)c1C	0	-6	-10	5	2	-1	i	-7
COCCn1c(COc2ccccc2)nnc1SCC(N)=O	·	-10	-40	·	-1	-2	·	-9
CCOC(=O)c1ccc[n+](CC(=O)Nc2cc(C(F)(F)F)ccc2Cl)c1	·	4	2	1	-17	6	i	8
CC(c1nnc(SCn2nnc3ccccc3c2=O)n1-c1ccc(Cl)cc1)N(C)C (stereo unspecified)	-13	-2	-26	-11	0	3	i	5
COc1ccc([C@@H]2CC=C(C(=O)O)[C@H](c3cccc(Cl)c3)N2S(=O)(=O)c2ccc(C)cc2)cc1OC	2	·	25	3	-1	3	·	·
COC(=O)N[C@H](CC(C)=O)c1cccc(C(F)(F)F)c1	-38	-2	11	-4	-3	-1	i	11
COc1ccc(C)cc1S(=O)(=O)N1CCC2(CC1)OCCN2S(=O)(=O)c1cccs1	-24	·	14	-21	2	-4	i	·
O=C(c1ccccc1)c1cnc(-c2ccc(Cl)cc2)s1	-18	-1	-319	-6	0	0	i	-2
COc1ccc(NC(=O)c2cnn(-c3ccccc3)c2C)cc1OC	6	-2	-37	2	3	-1	i	10
CN(c1ccc(C(=O)NCCc2ccccc2)cc1)S(C)(=O)=O	-35	-14	-63	·	5	1	i	-3
N#CCN1C(=O)NC2(CCCc3sccc32)C1=O (stereo unspecified)	-9	3	-6	-11	1	-2	i	12
O=C(NC1CCCCC1)NC1CC2CCC(C1)N2Cc1nnnn1Cc1ccc2c(c1)OCO2 (stereo unspecified)	·	-12	·	4	-4	1	i	-7
O=C(Nc1ccon1)c1cccc(Cl)c1	-8	-3	-55	3	1	0	i	-4
Cc1sc(NC(=O)CSc2nnnn2C2CCCC2)c(C#N)c1C	-14	-7	·	2	1	2	i	-2
O=C(NCCCN1CCOCC1)c1cc(-c2ccccc2F)no1	-18	-12	5	-9	6	9	i	-8
CC(C)CN(C(=O)COC(=O)c1cccs1)c1c(N)n(Cc2ccccc2)c(=O)[nH]c1=O	-5	·	1	·	-10	2	·	·
CC(C)c1nnc(NC(=O)CCC(=O)NCC2CCCO2)s1 (stereo unspecified)	1	-2	·	-7	3	0	i	-3
O=C(Cn1c(=O)c2cccn2c2cccnc21)NCCCN1CCN(c2ccc(F)cc2)CC1	-13	-10	7	-12	-3	7	i	7
CC(=O)OCC(=O)C1(O)CCC2C3CCC4=CC(=O)CCC4(C)C3C(O)CC21C (stereo unspecified)	-22	·	i	·	0	0	·	·
COc1ccc(Cc2c(N)nc(N)nc2N)cc1	9	-5	·	1	3	4	i	-7

Compounds from the list above with an NH in an aromatic ring (two):
SMILES	Yeast UUG start	eIF4H FP inh	HIV Env fusion	CSC inhib	MT1-MMP act inh	MT1-MMP act inh RFP	Rce1 inh	PABP FP inh	others
N#Cc1c(-c2ccccc2)nc(-c2ccncc2)[nH]c1=O	-30	1	-2	-13	2	3	i	-1
CC(C)CN(C(=O)COC(=O)c1cccs1)c1c(N)n(Cc2ccccc2)c(=O)[nH]c1=O	-5	·	1	·	-10	2	·	·

Remaining list, next part:
SMILES	Yeast UUG start	eIF4H FP inh	HIV Env fusion	CSC inhib	MT1-MMP act inh	MT1-MMP act inh RFP	Rce1 inh	PABP FP inh	others
CC(Oc1ccccc1)C(=O)Nc1cccc([N+](=O)[O-])c1 (stereo unspecified)	·	1	24	-3	-2	-1	i	4
CCOC(=O)c1c(C)oc2ccc(NS(=O)(=O)c3ccc(C(=O)O)cc3)cc12	·	4	10	12	2	-4	i	19
O=C(COc1ccccc1F)Nc1ccccc1C(=O)NC1CC1	-9	·	-5	·	6	2	·	·
CCOC(=O)c1c(-c2ccc(OC)c(OC)c2)csc1NC(=O)C1CCCO1 (stereo unspecified)	·	7	14	-6	1	-10	i	0
CCOc1ccc(N2C(=O)C3ON(c4ccccc4)C(c4ccco4)C3C2=O)cc1 (stereo unspecified)	·	-4	14	3	6	6	i	-1
C[C@@H]1CN([C@@H](C)CO)C(=O)CCCn2nncc2CO[C@H]1CN(C)S(=O)(=O)c1ccc(Oc2ccccc2)cc1	19&11	·	-11	·	0	3	·	·
CCC1CO/C(=C(\C(=C(Cl)Cl)N2CCOCC2)[N+](=O)[O-])N1 (stereo unspecified)	-9	-11	11	-13	2	1	i	-9
CCCn1c(SC(C)C(=O)O)nc2ccccc21 (stereo unspecified)	-15	5	·	1	-1	7	i	12
CCCN(CC(=O)Nc1ccccc1C)C(=O)/C=C/c1ccc(OC)c(OC)c1	-20	·	-9	·	-1	1	·	·
COc1ccccc1NC(=O)COC(=O)C12CC3CC(CC(Cl)(C3)C1)C2	1	-3	13	11	1	-4	i	1
OC(c1ccccc1)(c1nc(-c2cccc(C(F)(F)F)c2)cs1)C(F)(F)F (stereo unspecified)	-10	·	10	·	1	0	·	·
Cc1nnc(-c2ccc(N3CCCCCC3)c([N+](=O)[O-])c2)o1	3	-4	-7	2	1	-5	i	0
CSC1=C(C#N)C(CC(C)C)C(C(C)=O)=C(C)N1 (stereo unspecified)	-5	1	·	-3	1	3	i	9
Cn1c(N)c(C(=O)CSc2nc3ccccc3n2-c2ccccc2)c(=O)n(C)c1=O	-18	8	·	-5	1	1	i	-3
Cc1cccc(N2CCN(C(=O)COc3ccc4c(c3)CCC4)CC2)c1C	·	-10	-2	31	2	8	i	-6
CC(C)(C)NC(=O)NC(=O)COC(=O)c1nc(-c2ccccc2)n(-c2cccc(C(F)(F)F)c2)n1	·	-9	0	-11	1	2	i	-8
COc1cccc(OCc2nnc(SCc3cc(=O)[nH]c4ccccc34)o2)c1	·	-2	1	-3	2	3	i	8
Cc1onc(NC(=O)NC(=O)c2c(Cl)cccc2Cl)c1Br	1	4	-15	-11	3	3	i	7
CC1(c2ccc(Cl)cc2)NC(=O)N(CC(=O)Nc2ccc(N3CCCCC3)cc2)C1=O (stereo unspecified)	-8	·	-7	-15	7	-2	i	·
COc1cccc(-n2c(=S)sc3c(=O)n(-c4ccccc4OC)c(SCC4OCCO4)nc32)c1	·	3	-5	-5	-5	-3	i	3
O=C(CC1C(=O)NCCN1C/C=C/c1ccccc1)NCCCC1CCCC1 (stereo unspecified)	-7	0	7	-16	-2	-2	i	-6
Cc1c(NC(=O)Cn2nc(C(=O)O)c3ccccc3c2=O)c(=O)n(-c2ccccc2)n1C	-4	-13	·	-7	14	-3	i	-1
COc1ccc(OCC(=O)OCC(=O)N2CC(=O)Nc3ccccc32)cc1	-21	-10	21	-10	-1	4	i	-2
COCCCNC(=O)c1cc2c(=O)n3cccc(C)c3nc2s1	-17	2	-30	8	-1	-1	i	-5
C/C(=N\NC(=O)OC(C)(C)C)c1ccc[nH]1	-13	-4	-35	9	0	-6	i	2
CS(=O)(=O)Nc1ccc(OCc2ccccc2)cc1	-12	1	-83	-9	2	-1	i	3
Cc1ccc(C(=O)CCNc2ccc(Cl)cc2)o1	-3	-15	·	-5	-4	-8	i	6
Cc1c(C(=O)O)c(C(=O)O)c2n1CCS2	·	-1	4	-7	3	-1	i	7
O=S(=O)(c1ccc(Br)c2ccccc12)N1CCCC1	37	-7	17	-8	-5	-7	i	7
Cc1ccc(C(=O)N/C(=C/c2cccs2)C(=O)N2CCCCC2)cc1	·	5	-3	-9	4	4	i	5
c1ccn(-c2ccc(-c3ccn[nH]3)cc2)c1	·	0	-79	3	0	-4	i	-3
O=C(Nc1ccc2c(c1)OCCO2)c1c(F)c(F)c(F)c(F)c1F	·	3	-19	-1	-3	-2	i	2

High-throughput results: PubChem BioAssay, several laboratories
